Beta2AR agonist: agonists of human beta-2 adrenergic receptor inducing internalization | P07550 | Am2.2-beta2AR cells, FAP receptor internalization, flow cytometry; reference of the scale not given here | response, % (no concentration beside the values) | 340,000 tested, 0.43% active | AID 504454;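 active means response above a set limit, near 3 SD of response in nonfluorescent compounds, cut at about 42% in these data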;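 further: stock transfer was 100 nL into about 11 µL; a reference agonist was the positive control; negative values mostly stem from fluorescent compounds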
Target sequence (P07550 whole entry, looked up): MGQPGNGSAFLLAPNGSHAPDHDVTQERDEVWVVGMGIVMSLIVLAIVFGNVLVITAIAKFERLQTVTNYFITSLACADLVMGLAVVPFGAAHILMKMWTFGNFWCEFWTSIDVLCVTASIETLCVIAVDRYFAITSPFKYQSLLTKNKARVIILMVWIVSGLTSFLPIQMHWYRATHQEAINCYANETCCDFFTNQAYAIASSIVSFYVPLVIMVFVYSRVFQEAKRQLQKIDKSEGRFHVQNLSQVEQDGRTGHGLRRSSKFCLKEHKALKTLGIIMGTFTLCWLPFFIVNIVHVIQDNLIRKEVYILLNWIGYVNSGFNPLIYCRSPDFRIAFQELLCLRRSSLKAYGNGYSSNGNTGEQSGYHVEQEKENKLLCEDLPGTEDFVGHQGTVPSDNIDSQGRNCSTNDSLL
T cruzi inh: blocks replication of Trypanosoma cruzi; T. cruzi beta-gal in NIH3T3, luminescence, 90 h; inhibition, % (no concentration beside the values); 300,000 tested, 1.4% active; AID 1885;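 active means mean inhibition across valid replicates above about 55%, limit read from the data; inconclusive means mean below that limit but half or more replicates reach it; inactive means mean below it, under half of replicates reach it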;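 further: signal also drops with host cell toxicity which is not excluded here; 0% = plate median of DMSO wells and 100% = zero luminescence signal; higher percent means less beta-gal luminescence so fewer parasites; stock transfer was 50 nL into about 50 µL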
ALR H2O2 inh: blocks human ALR sulfhydryl oxidase activity. P55789. purified ALR, DTT oxidation, H2O2 HRP-luminol luminescence. inhibition, % (test concentration not listed). 290,000 tested, 3.8% active. AID 485317;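 active means mean and each replicate at 75% or more; inconclusive means only one of the two met; inactive means neither met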;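 further: stock transfer was 7.5 nL into about 7.5 µL; 0% = neutral wells and 100% = wells with inactivated enzyme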
Target sequence (P55789 whole entry, looked up): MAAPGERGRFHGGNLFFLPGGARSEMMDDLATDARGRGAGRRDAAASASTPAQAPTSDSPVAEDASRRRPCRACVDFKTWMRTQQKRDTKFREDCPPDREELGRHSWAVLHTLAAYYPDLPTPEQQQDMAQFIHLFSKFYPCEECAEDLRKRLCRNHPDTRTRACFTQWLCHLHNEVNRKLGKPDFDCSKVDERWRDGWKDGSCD
LANA-H2A inh: blocks KSHV LANA binding to histone H2A/H2B; Q9QR71; cell-free LANA-H2A/H2B peptide, fluorescence polarization; inhibition, % (no concentration beside the values); 320,000 tested, 0.6% active; AID 2629; in the data active means inhibition mostly above about 10%, no sharp cut-off; inactive means mostly below about 6.7%;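 further: stock transfer was 7.5 nL into about 10 µL; 0% = median of vehicle wells and 100% = median of positive control wells; one replicate is shown; the record names a cut of 25% in any replicate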
Bfl-1 A1 inh: inhibitors of the anti-apoptotic protein A1, read as caspase activation | MEF A1-2A-BIM cells, Caspase-Glo 3/7 luminescence, 3 h; percent of clofoctol response, vehicle zero | caspase activation, % (test concentration not listed) | 330,000 tested, 0.066% active;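 active means over half of replicate activation scores above 10%, or exactly half above 10 with the replicate mean above 10; inconclusive means replicate mean below 10 yet half the replicates above 10; inactive means over half of replicates below 10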;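 further: wells of about 30 µL received 50 nL stock; many hits fall short of the cut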
Calb FLC: C. albicans growth modulation with fluconazole | C. albicans CaCi-2 (fluconazole-resistant clinical isolate) + fluconazole, Alamar Blue growth, 48 h | growth inhibition, % (test concentration not listed) | 300,000 tested, 0.57% active | AID 1979;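 active means most replicates above 75%; inconclusive means exactly half above 75%; inactive means most below 75%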;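 further: all wells also contain fluconazole at 8 µg/ml as a sub-toxic cotreatment; 0% = median of DMSO wells and 100% = median of geldanamycin control wells; wells of about 8 µL received 7.5 nL stock; the first replicate is given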
Beta apoptosis: blocks beta cell apoptosis | INS-1E cytokine-induced death, ATP luminescence, 48 h; percent of positive-control rescue, neutral wells zero | protection from apoptosis, % (concentration not given with the values) | 300,000 tested, 0.8% active | AID 435005;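 active means all replicates at 75% or more, or half of them and the mean; inconclusive means half reach 75% but not the mean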;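 further: 0% = cytokine-treated negative control wells and 100% = positive control rescue; higher means more ATP so stronger rescue from cytokine killing; wells of about 40 µL received 100 nL stock; the first replicate is given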
Ecoli rRNA inh: inhibitors of bacterial rRNA selective over humanized ribosomes; GFP signal change (wild-type ribosome), % (test concentration not listed); 350,000 tested, 1.6% active; AID 720706; E. coli WT GFP vs humanized-ribosome RFP mutants, fluorescence, 24 h; hits give low values; DMSO median 0, no signal -100;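 active means significant combined selectivity score with lowered wild-type GFP, culture density cut under 30%, mutant RFP and density less affected; inactive means any of these conditions unmet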; further: one replicate is shown; some compounds called inactive have numbers as strong as hits
Ecoli rRNA inh OD600: second read-out of Ecoli rRNA inh, no call of its own (marks repeat the call); OD600 change, %; measured here: OD600 growth;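 optical density of the mix in the first replicate; 0 = DMSO median and -100 = no signal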
Ecoli rRNA inh RFP: recorded beside Ecoli rRNA inh, whose call it bears; RFP signal change, %; measured here: RFP humanized mutant strains;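 first replicate; 0 = DMSO median and -100 = no signal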
* marks the source's active call; other numbers are inactive results; u = inconclusive; x = no result given.

SMILES	Beta2AR agonist	T cruzi inh	ALR H2O2 inh	LANA-H2A inh	Bfl-1 A1 inh	Calb FLC	Beta apoptosis	Ecoli rRNA inh	Ecoli rRNA inh OD600	Ecoli rRNA inh RFP
COc1cc(/C=N/n2nnnc2N)cc(Cl)c1OC	-2	-10	1	-1.3	0.9	-1	-8	-1	10	-0.1
C=CCSc1nc(C)c(Cc2cccc3ccccc23)c(=O)[nH]1	8	-14	-5	-4.2	-0.1	31	-9	1	0	1.5
N#Cc1cnc(NCc2ccc(Cl)cc2Cl)nc1	7	5	1	0.7	0.1	-2	0	1	3	1.0
CCOC(=O)c1nn(-c2ccc(OCC)cc2)c2nc(-c3cccc(OC)c3)c(C#N)c(=O)n12	-10	2	1	1.6	0.0	-22	0	7	12	-4.8
Cc1[nH]c2ccccc2c1C(=O)C(=O)N1CCN(c2ccccc2F)CC1	-5	15	0	-10	0.1	-9	-2	1	-20	-4.8
C/C(=N\OC(=O)c1ccc(Cl)c(Cl)c1)c1sc(C)nc1C	-1	-16	-12	2.4	0.3	4	x	x	x	x
CC(Oc1cccc(F)c1)C(=O)/C=C\N(C)C (centres undefined)	-2	-2	u	0.9	0.6	-3	-12	x	x	x
Cc1cccc(NC(=O)C(=O)NNC(=O)c2ccc(C(C)(C)C)cc2)c1	3	4	-7	4.2	-0.3	u	6	6	-7	0.9
Brc1ccc2cccnc2c1	1	-12	x	0.8	-0.6	-8	1	x	x	x
CCCCn1c(N)c(N(CC(C)C)C(=O)c2ccc(COc3ccccc3)o2)c(=O)[nH]c1=O	1	12	-6	2.8	-1.0	-3	-3	12	10	-0.2
Cc1onc(-c2ccccc2)c1C(=O)Nc1cccc2nsnc12	5	-1	-3	-3.8	0.2	1	-3	x	x	x
O=C(CNC(=O)Cc1ccccc1)N=Nc1c(O)[nH]c2ccccc12	-3	-5	0	-5.4	0.1	4	0	3	20	-2.0
NS(=O)(=O)c1ccc(CNC(=O)/C=C/c2c(Cl)cccc2Cl)cc1	x	0	-3	-0.2	-0.4	4	0	x	x	x
O=C(CC1CCCCC1)NCc1nc(-c2ccccc2)no1	5	3	x	-2.9	0.8	-9	-5	-1	-1	2.0
COC(=O)c1nn(-c2ccccc2)c(Sc2ccc(Cl)cc2)c1/C=N/O	7	15	6	-1.2	0.0	-5	1	x	x	x
Cc1cc(NC(=O)c2cc(-c3ccco3)on2)nn1Cc1ccc(Cl)cc1	-2	-76	38	15*	0.1	2	-2	x	x	x
Oc1cc(NCc2ccc(Cl)cc2)cc2cccnc12	-5	x	-25	1.9	-0.5	x	-1	5	1	4.7
CC(C)CC(=O)NC(=S)Nc1nc(-c2ccc(Cl)cc2)cs1	4	4	-21	-3.6	-0.3	x	1	11	3	1.1
O=C(CSCCc1ccccn1)Nc1cccnc1Cl	6	-22	8	-1.6	0.9	5	-2	x	x	x
CCCCC(=O)Nc1cccc(-c2cn3ccccc3n2)c1	-15	-3	2	2.1	-1.4	11	-7	-13	-6	0.7
CC(C)NCC(O)Cn1c2c(c3ccccc31)CCc1c-2cnn1-c1ccccc1 (centres undefined)	42	40	89*	1.0	-0.3	-16	113*	x	x	x
COc1ccc(C(=O)NCc2ccccc2OC)c(OC)c1	5	19	0	1.8	-1.1	-3	-7	x	x	x
O=C(NCc1cccnc1)c1nc(-c2cccs2)no1	-16	-9	-4	4.3	0.3	0	0	10	5	2.4
COc1ccccc1-n1cnnc1SCC(=O)c1cc(C)n(Cc2cccs2)c1C	5	-1	-2	5.0	0.1	-6	-2	x	x	x
COC(CNC(=O)c1ccc(N2CCC3(CC2)OCCO3)c([N+](=O)[O-])c1)OC	4	-8	-4	-1.6	0.5	-9	-10	3	9	0.9
CCN(CC)CCN(C(=O)/C=C/c1cccs1)c1nc2ccc(Cl)cc2s1	13	12	-3	0.2	0.5	-11	20	-10	4	1.0
Cc1nc2c(Cl)cc(Cl)cc2[nH]1	5	-6	0	0.6	-0.3	-23	-9	x	x	x
COC(=O)CN1C(=O)[C@@H]2[C@H](C1=O)[C@@H]1CC(C(=O)OC)=C[C@@H](C(=O)OC)[C@@H]3C1=C(C(=O)[C@]3(C)NC(=O)c1ccccc1)[C@@H]2C	-1	-8	41	4.1	0.1	3	-5	7	9	-0.6
O=C(NO)c1ccccc1C(F)(F)F	-1	-8	15	-0.7	0.5	-3	-1	12	8	0.3
Cc1ccc(S(=O)(=O)NNC(=O)C2CCN(S(=O)(=O)c3ccc(C)cc3)CC2)cc1	7	-3	29	1.4	0.2	-7	0	x	x	x

A portion from the list above, as a working copy:
SMILES	Beta2AR agonist	T cruzi inh	ALR H2O2 inh	LANA-H2A inh	Bfl-1 A1 inh	Calb FLC	Beta apoptosis	Ecoli rRNA inh	Ecoli rRNA inh OD600	Ecoli rRNA inh RFP
CCN(CC)CCN(C(=O)/C=C/c1cccs1)c1nc2ccc(Cl)cc2s1	13	12	-3	0.2	0.5	-11	20	-10	4	1.0
Cc1nc2c(Cl)cc(Cl)cc2[nH]1	5	-6	0	0.6	-0.3	-23	-9	x	x	x
COC(=O)CN1C(=O)[C@@H]2[C@H](C1=O)[C@@H]1CC(C(=O)OC)=C[C@@H](C(=O)OC)[C@@H]3C1=C(C(=O)[C@]3(C)NC(=O)c1ccccc1)[C@@H]2C	-1	-8	41	4.1	0.1	3	-5	7	9	-0.6
O=C(NO)c1ccccc1C(F)(F)F	-1	-8	15	-0.7	0.5	-3	-1	12	8	0.3
Cc1ccc(S(=O)(=O)NNC(=O)C2CCN(S(=O)(=O)c3ccc(C)cc3)CC2)cc1	7	-3	29	1.4	0.2	-7	0	x	x	x

Single records, from the list above:
Entry for `COC(=O)CN1C(=O)[C@@H]2[C@H](C1=O)[C@@H]1CC(C(=O)OC)=C[C@@H](C(=O)OC)[C@@H]3C1=C(C(=O)[C@]3(C)NC(=O)c1ccccc1)[C@@H]2C` = Beta2AR agonist = -1; T cruzi inh = -8; ALR H2O2 inh = 41; LANA-H2A inh = 4.1; Bfl-1 A1 inh = 0.1; Calb FLC = 3; Beta apoptosis = -5; Ecoli rRNA inh = 7; Ecoli rRNA inh OD600 = 9; Ecoli rRNA inh RFP = -0.6
Entry for `COC(CNC(=O)c1ccc(N2CCC3(CC2)OCCO3)c([N+](=O)[O-])c1)OC` = Beta2AR agonist = 4; T cruzi inh = -8; ALR H2O2 inh = -4; LANA-H2A inh = -1.6; Bfl-1 A1 inh = 0.5; Calb FLC = -9; Beta apoptosis = -10; Ecoli rRNA inh = 3; Ecoli rRNA inh OD600 = 9; Ecoli rRNA inh RFP = 0.9

(next part)
SMILES	Beta2AR agonist	T cruzi inh	ALR H2O2 inh	LANA-H2A inh	Bfl-1 A1 inh	Calb FLC	Beta apoptosis	Ecoli rRNA inh	Ecoli rRNA inh OD600	Ecoli rRNA inh RFP
CC(C)N1CCN(Cc2cc(F)ccc2-n2cccn2)CC1CCO (centres undefined)	-3	-6	-24	3.2	7.8	-19	-3	7	4	-0.2
CC(=O)Nc1ccc(NC(=O)CC2Nc3cccc4cccc(c34)NC2=O)cc1 (centres undefined)	-7	-10	86*	-2.0	-0.5	1	-4	x	x	x
Cc1ccc(NC(=O)CCn2c(=S)oc3ccccc32)cc1	-7	-2	-2	-4.3	0.0	16	-2	7	6	-1.6
COc1ccc(N(CC(=O)NCc2ccccc2OC)S(=O)(=O)c2ccc(C)cc2)cc1Cl	-6	27	-3	-4.1	-0.8	-6	x	-8	-10	3.4
O=C(CCc1ccccc1)N=C1SC2CS(=O)(=O)CC2N1c1ccc(F)cc1 (centres undefined)	-1	0	-2	-2.5	0.2	1	-5	19	14	0.3
CC1Cc2ccccc2N1C(=O)Cn1nc(C(=O)O)c2ccccc2c1=O (centres undefined)	2	13	-5	-3.3	-0.9	-2	6	x	x	x
Cc1ccccc1CC(=O)NCc1cccnc1	4	-14	-12	-0.2	-0.2	4	2	4	18	-3.9
COc1ccccc1CNC(=O)c1sccc1C	9	-14	-22	5.8	0.0	-8	-4	1	1	0.5
OC1CCN(Cc2cccc3ccccc23)CC1	4	29	-9	-0.4	0.8	-5	-5	8	8	-1.6
CCCC(=O)Nc1nc(C)c(C(C)=O)s1	-10	0	-3	0.4	1.7	-4	-5	10	11	-6.3
COc1cccc(CC(=O)NC2CCCN(Cc3ccccc3F)C2)c1 (centres undefined)	0	-7	1	2.9	2.2	-12	-3	-4	1	-0.7
C=CC[n+]1c(-c2ccc(OC)c(OC)c2)csc1NNC(=O)Nc1ccccc1	9	17	36	-10	-0.6	-5	x	x	x	x
Cc1cccc(Nc2nnc(SCC(=O)Nc3ccccc3[N+](=O)[O-])s2)c1	-1	-7	3	0.3	-0.8	-15	-9	x	x	x
O=C1CSC(c2ccccc2)N1CCc1ccccc1 (centres undefined)	-4	0	-3	-4.0	0.3	3	-2	-9	-13	-1.1
CN(C)C(=O)c1cc(C(=O)c2ccc(C(F)(F)F)cc2)c[nH]1	-8	-15	x	-4.7	0.3	-2	x	1	2	-8.3
Cc1ccc(S(=O)(=O)N2CCN(CC(=O)N(CC(C)C)c3c(N)n(CC(C)C)c(=O)[nH]c3=O)CC2)c(C)c1	1	-9	x	-5.3	-0.1	1	-4	13	7	5.4
CCOc1ccc(/C=N/NC(=O)Cc2csc(Nc3cccc(C(F)(F)F)c3)n2)cc1	1	5	-9	-0.9	0.1	-5	-4	x	x	x
COc1ccc(CCCC(=O)NCCc2ccccc2)c(C)c1	-3	4	-8	2.4	0.4	-4	x	3	-3	-4.4
Cc1c(Nc2ccc(C=O)cc2)c(=O)n(-c2ccccc2)n1C	6	6	45	-5.0	-0.2	-11	-8	10	11	-2.0
CCC1(C)Cc2ccccc2-c2nc(SC)[nH]c(=O)c21 (centres undefined)	-1	-5	3	0.4	-0.8	-9	-4	1	1	-0.6
Cn1c(NNC(=O)C2CCCCC2)cc(=O)n(C)c1=O	9	0	35	1.4	0.8	-31	-7	21	24	2.6
Cc1ccc(N2C(=O)C(Cc3ccc(O)cc3)NC2=S)cc1C (centres undefined)	-2	-14	x	x	-0.1	1	3	x	x	x
O=C(c1ccc([N+](=O)[O-])cc1)N1CCN(C(=O)C2CCCCC2)CC1	11	4	-3	-1.5	0.4	-9	-2	5	11	0.7
COc1ccccc1NC(=O)Nc1nnc(CC(=O)Nc2cccc(C)c2)s1	4	11	-2	-3.3	0.4	17	0	8	9	15
NS(=O)(=O)c1ccc(NC(=S)Nc2nn(Cc3ccc(Cl)cc3Cl)cc2Cl)cc1	-3	8	-15	-1.8	0.0	-7	-8	x	x	x
CCCCC(=O)N=c1sc2cc([N+](=O)[O-])ccc2n1C	3	22	-18	0.9	-0.1	17	3	4	1	0.4

From PubChem BioAssay

Only part of the results is shown; rates above refer to the full screens.
